# Screens: PubChem BioAssay, National Center for Advancing Translational Sciences (NCATS)
# PMP22 txn prim = modulates PMP22 transcription in S16 Schwann cells. S16 Pmp22-F2sN Schwann cells (luciferase reporters placed in the Pmp22 gene), FLuc/NLuc coincidence luminescence, 24 h. Potency, µM (titrated, usually from 57.5 µM), inactives show at the highest dose activity change, negative = inhibition, hits mostly inhibitors. 2% of 43,000 active. AID 1508649; active = clear falling dose curves in both reporters; inconclusive = both reporters move, but less clearly or upward; inactive = either reporter flat; the % is the NLuc reporter signal; also: % is scaled to controls: 0 for no effect and ±100 for the full control effect; some results filed as inactive show a strong effect at the top dose
#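 Transcriptional readout in edited S16(c9) cells: two luciferases reported from the Pmp22 locus, measured in turn after 24 h compound incubation.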
# HTT prom inh = HTT promoter inhibition; 0.93% of 48,000 active; HEK293 HTT promoter firefly luciferase reporter (activity 0% = vehicle and -100% = no light), 24 h; Potency, µM (top dose mostly 57.5 µM), inactives show at the highest dose activity change, negative = inhibition, actives largely listed as inhibitors; active = well fitted inhibition curve with a large enough effect; inconclusive = small, poorly fitted or top-dose-only effect; inactive = no such curve, though single readings can be large or run the other way; also: nearly all actives have a fitted effect of over 50% in size
#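 Luminescence was read after Dual-Glo reagent and a 10 min room-temperature incubation. Values were normalized to vehicle (0% activity) and zero RLU (-100% activity). Reporter HEK293 cells had been exposed to compounds (up to 57.5 uM final) for 24 h.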
# Active calls of the source: *; u = inconclusive; x = no result given; [ ] = remark or other dose. Potency is read from the fitted curve at half-maximal effect.
# Preview (seven entries):
SMILES | PMP22 txn prim | HTT prom inh
Fc1ccc(C(c2nnc(-c3ccccc3)o2)N2CCN(c3cccc(Cl)c3)CC2)cc1 (stereo not given) | -15% | u
COc1ccc(CCNS(=O)(=O)c2ccc(N3CCCCS3(=O)=O)cc2)cc1OC | u | u
Cc1ccccc1C(=O)NCCc1sc(-c2ccc(Cl)cc2)nc1C | -3% | -10%
CCc1cccc(C)c1NC(=O)Cn1cc2c(n1)CCCC2 | -56% | u
CCOc1ccc(CCNC(=O)C2CCCN(c3nnc(C)c4c(C)n(-c5ccccc5)nc34)C2)cc1 (stereo not given) | u | -22%
CCCc1nn2c(=O)cc(COC(=O)c3ccc(NC(=O)c4cccs4)cc3)nc2s1 | u | -24%
CCc1ccc(CNC(=O)Cn2nc(C)n3c(cc4cc(C)ccc43)c2=O)cc1 | -4% | -4%

# Main list, previewed entries included:
SMILES | PMP22 txn prim | HTT prom inh
Fc1ccc(C(c2nnc(-c3ccccc3)o2)N2CCN(c3cccc(Cl)c3)CC2)cc1 (stereo not given) | -15% | u
COc1ccc(CCNS(=O)(=O)c2ccc(N3CCCCS3(=O)=O)cc2)cc1OC | u | u
Cc1ccccc1C(=O)NCCc1sc(-c2ccc(Cl)cc2)nc1C | -3% | -10%
CCc1cccc(C)c1NC(=O)Cn1cc2c(n1)CCCC2 | -56% | u
CCOc1ccc(CCNC(=O)C2CCCN(c3nnc(C)c4c(C)n(-c5ccccc5)nc34)C2)cc1 (stereo not given) | u | -22%
CCCc1nn2c(=O)cc(COC(=O)c3ccc(NC(=O)c4cccs4)cc3)nc2s1 | u | -24%
CCc1ccc(CNC(=O)Cn2nc(C)n3c(cc4cc(C)ccc43)c2=O)cc1 | -4% | -4%
COc1ccc(-c2cc(C)no2)cc1S(=O)(=O)Nc1c(C)cc(C)cc1C | -31% | -30%
CCOC(=O)c1c(NC(=O)CCCOc2ccc(Cl)cc2)sc2c1CCC2 | -10% | -7%
COc1cccc(C(=O)Nc2ccc3nc(SCC(=O)N4CCc5ccccc54)sc3c2)c1 | -13% | -10%
COc1ccc(CCC(=O)NCCc2csc(-c3ccc(F)cc3)n2)cc1 | -14% | -6%
CSc1ncc(Cl)c(C(=O)N(Cc2ccc(N(C)C)cc2)Cc2ccco2)n1 | u | u
O=S(=O)(c1ccc(-c2cc(C(F)(F)F)on2)s1)N1CCN(c2ccccc2)CC1 | -7% | 9%
O=C(Nc1ccc2oc(-c3cccnc3)nc2c1)c1ccc(-c2cccc(OC(F)(F)F)c2)o1 | -13% | u
CCOC(=O)N1CCN(C(=O)CN(c2ccccc2F)S(=O)(=O)c2ccc(C)cc2)CC1 | -6% | -21%
CC(C)C(=O)c1cc2c(cc1NC(=O)c1ccccc1F)OCCO2 | -3% | -15%
CCCSc1ccc2nc(NC(=O)OC)[nH]c2c1 | x | 0%
CCc1ccc(-c2nn(-c3ccc(OC)cc3)c3c2cnc2ccc(OC)cc23)cc1 | u | -10%
CC(C)CN(CC(C)C)c1nnc(NC(=O)Nc2cccc(C(F)(F)F)c2)s1 | u | -22%
COc1ccc(-n2nc(C(=O)N(C)c3cc(Cl)ccc3OC)c3c4ccccc4n(C)c3c2=O)cc1 | 5% | -9%
CN(C)c1ccc(C(CNS(=O)(=O)c2ccc(F)cc2F)N2CCOCC2)cc1 (stereo not given) | -19% | -13%
Cc1ccc(C)c(CN2C(=O)c3ccccc3S(=O)(=O)c3ccc(C(=O)N(C)C4CCCCC4)cc32)c1 | -25% | u
COCc1cc(C)nc2sc3c(c12)NC(c1ccccc1C(=O)O)N(c1cccc(C(F)(F)F)c1)C3=O (stereo not given) | -10% | 1%
CC(C)(C)C1CCc2c(sc(NC(=O)c3cccc(Cl)c3)c2C(N)=O)C1 (stereo not given) | -11% | -22%
CCOc1ccc2nc(N3CCCC(C(=O)NCCc4ccc(C)cc4)C3)sc2c1 (stereo not given) | -26% | 68%[activator]
CCOC(=O)c1ccccc1NC(=O)N1CC(C)Oc2ccc(C)cc21 (stereo not given) | -18% | u
COc1cccc(-c2nc(CS(=O)(=O)CC(=O)NCCCc3ccccc3)c(C)o2)c1 | 11% | -26%
Cc1oc(-c2ccccc2F)nc1CS(=O)(=O)CC(=O)N1CCN(c2ccc(Cl)cc2)CC1 | u | 28µM*
COc1ccc(C(=O)Nc2ccc(-c3cc4ccccc4oc3=O)c(C)c2)cc1OC | -10% | -22%
Cc1cc(C)cc(N(CC(=O)NCCc2ccc(Cl)cc2)S(=O)(=O)c2c(C)noc2C)c1 | u | -1%
COc1cc(SC)ccc1C(=O)Nc1ccc(S(=O)(=O)Nc2nccc(C)n2)cc1 | 6% | -1%
CCc1nnc(SCc2ccc(OC)cc2)c2cc3sc(C)cc3n12 | -44% | 4%
CCCCn1cnc2cc(NC(=O)c3cc(OC)c(OC)c(OC)c3)ccc21 | -13% | -10%
O=C(CSc1nc(-c2cccc(F)c2)[nH]c1-c1ccccc1)Nc1ccc2c(c1)OCO2 | u | u
Cc1ccc(N2CCn3c2nc2c3c(=O)n(CCc3ccccc3)c(=O)n2C)cc1C | 8% | -6%
COc1ccc(-c2nc3ccccc3n2Cc2ccc(Cl)cc2)cc1 | -19% | -28%
Cc1ccc(C(=O)CSc2nc(-c3ccccc3)nc3c2CCCC3)cc1C | -28% | -9%
CC(C)c1ccc(C2=CC(c3cccc(Cl)c3)n3ncnc3N2)cc1 (stereo not given) | u | -37%
O=C1c2ccccc2CCc2ccccc21 | x | 7%
CCc1nc2ccccc2n2c(-c3ccccc3)c3c(=O)n(C)c(=O)n(C)c3c12 | -30% | -9%

# Next section, overlapping the part above by 2 compounds.
SMILES | PMP22 txn prim | HTT prom inh
O=C1c2ccccc2CCc2ccccc21 | x | 7%
CCc1nc2ccccc2n2c(-c3ccccc3)c3c(=O)n(C)c(=O)n(C)c3c12 | -30% | -9%
Cc1cc(C)cc(OCC(=O)Nc2nc(-c3ccc(F)cc3)ns2)c1 | -24% | 6%
COc1ccc(NC(=O)c2cc3c(=O)n(C)c4cc(Cl)ccc4c3s2)cc1Cl | -7% | -4%
Cc1ccc2c(c1)c(=O)c1ccccc1n2CCCC(=O)Nc1ccc(F)cc1F | 5% | -32%
COc1ccc(S(=O)(=O)N2CCN(Cc3ccc4c(c3)OCO4)CC2)cc1OC | -20% | -27%
CCOC(=O)c1noc2nc(C)n(CC(=O)Nc3ccc(Br)cc3C)c(=O)c12 | -1% | -10%
Cc1ccc([N+](=O)[O-])cc1NC(=O)CN(c1ccccc1)S(=O)(=O)N(C)C | -11% | -15%
Cc1ccc(C)c(N2CCN(C(=O)C3CCCN(S(=O)(=O)c4cccc5nsnc45)C3)CC2)c1 (stereo not given) | u | u
O=C(Nc1cccc(C(F)(F)F)c1)c1cccc(C(=O)Nc2cccc(C(F)(F)F)c2)c1 | u | -24%
CCOc1ccc(NC(=O)C2CCN(S(=O)(=O)c3c(C)noc3/C=C/c3ccco3)CC2)cc1 | -35% | -23%
CSc1cccc(NC(=O)C(c2ccccc2)N2Cc3ccccc3C2=O)c1 (stereo not given) | 2% | u
CCc1ccc(-n2nc(C)c3c(C(=O)N4CCN(c5ccccc5)CC4)cc(C)nc32)cc1 | -15% | -25%
COc1ccc(C2C(C(=O)Nc3cccnc3)=C(C)Nc3nc(-c4ccccc4)nn32)cc1OC (stereo not given) | -6% | -7%
CC(=O)N1CCc2c(sc3c2c(=O)n(-c2cc(Cl)ccc2C)c(=O)n3Cc2ccccc2F)C1 | u | u
CCOc1ccc(C(=O)c2oc3ccccc3c2NC(=O)Cc2coc3ccc(CC)cc23)cc1 | -4% | 4%
CCCNC(=O)C1CCN(S(=O)(=O)c2ccc3c(c2)CCCN3C(C)=O)CC1 | -10% | -5%
CC(C)CN(CCNC(=O)CN1C(=O)CSc2ccc(S(=O)(=O)N3CCOCC3)cc21)CC(C)C | -21% | -11%
CC1(C)N=C(SCc2ccccc2Cl)c2ccccc2N1 | -12% | -7%[11.5 µM]
Cn1c(=O)oc2cc(S(=O)(=O)N3CCC(C(=O)Nc4ccc(F)c(Cl)c4)CC3)ccc21 | u | -15%
O=C(NCc1ccccc1)c1nc(S(=O)(=O)Cc2ccccc2)ncc1Cl | 6.5µM* | u
CCCCC(=O)Nc1ccc(OCc2cc(=O)n3ccc(C)cc3n2)cc1 | 24% | 0%
CC(C)Cn1c(=O)c2sccc2n2c(CCCC(=O)Nc3ccc(Cl)cc3)nnc12 | 10% | -19%
Cc1cc(C)cc(N2CCn3c2nc2c3c(=O)n(CCCc3ccccc3)c(=O)n2C)c1 | -8% | 7%
CCOc1ccccc1NC(=O)c1c(NC(=O)Cc2ccc(OC)cc2)sc2c1CCC2 | u | 28%
CCN(C(=O)c1cn(CC)c(=O)c2cc(OC)c(OC)cc12)c1ccccc1F | -114% | -8%
COc1ccc(CNC(=O)c2ccc(N3CCCC3)c(NC(=O)NCc3ccc(C)cc3)c2)cc1 | u | u
CCn1c(=O)c2sccc2n2c(CCC(=O)NCc3ccc(Cl)cc3)nnc12 | -13% | 7%
COc1cc(-c2noc(-c3cc4cccc(C)c4oc3=O)n2)cc(OC)c1OC | -36% | -7%
Cc1ccc2c(=O)cc(C(=O)Nc3sc4c(c3C(=O)NCc3ccco3)CCC4)oc2c1C | -6% | 13%
O=C(Nc1nc2ccc(F)cc2s1)c1nc(S(=O)(=O)Cc2ccccc2)ncc1Cl | 6.2µM* | u
COCCCNC(=O)CCCn1c(=O)c2cccn2c2ccccc21 | -7% | 18%
Cc1ccc(-n2nc3c(=O)n(C(C)C(=O)NCc4ccc(OC(C)C)cc4)nc(C)c3c2C)cc1 (stereo not given) | u | 7.1µM*
CC(C)CCNC(=O)c1ccc2c(c1)NC(=O)C(C(C)C)N2 (stereo not given) | 3% | u
COc1ccc(CNC(=O)Nc2cn(CC(C)C)c(=O)c3ccccc23)c(OC)c1 | 11% | 6%
CSc1nnc(NC(=O)c2cc(=O)c3cc(C)c(C)cc3o2)s1 | 4% | -2%
COc1cc(N2CCN(C)CC2)ccc1Nc1nc(N)c(C(=O)c2c(Cl)cccc2Cl)s1 | x | -12%
Cc1onc(-c2ccc(F)cc2F)c1C(=O)Nc1cccc(C(F)(F)F)c1 | -5% | u
CC(C)Cn1cnc2c(N)nc3ccccc3c21 | x | 1%
CCOC(=O)CC(NC(=O)CCc1c(C)nc2c(-c3ccccc3)c(C)nn2c1C)c1ccc(OC(C)C)cc1 (stereo not given) | u | u
CCN(CC)c1ccc(-c2nc(-c3ccco3)no2)cc1[N+](=O)[O-] | u | u
COc1ccc(C)cc1NC(=O)N1CCC(CN2CCOCC2)CC1 | -2% | -22%
CCc1ccc(NC(=O)CSC2=Nc3ccccc3C3=NC(CC(=O)NCc4ccc5c(c4)OCO5)C(=O)N23)cc1 (stereo not given) | -24% | 0%
Cc1ccc(N2CC(c3nc(-c4ccc(Cl)cc4)no3)CC2=O)cc1F (stereo not given) | -7% | 13%
Cc1ccc(C(=O)Nc2ccc(-c3nc4ccccc4s3)cc2C)cc1C | -16% | 45%[activator]
CCN(c1ccc(C)cc1)S(=O)(=O)c1nnc(NC(=O)C2CCCCC2)s1 | 0% | 10%
Cc1cccc(C(=O)Nc2ccc(N3CCC(N4CCCCC4)CC3)c(C(=O)O)c2)c1 | 15% | -8%
Cc1cccn2c(=O)cc(CSc3nnc(NC(=O)C(C)C)s3)nc12 | -9% | -8%
COCCCNC(=O)c1ccc2c(c1)N(Cc1ccccc1)C(=O)c1ccccc1S2 | -10% | -13%
CCCCNC(=O)CC1N=C2c3ccccc3N=C(SCC(=O)NCc3ccccc3Cl)N2C1=O (stereo not given) | 6% | -8%
Cc1ccc(NC(=O)c2ccc3c(O)c(S(=O)(=O)c4ccc(Cl)cc4)c(=O)[nH]c3c2)cc1 | -6% | -1%
Cc1ccc(Cl)cc1N1CCN(C2(c3ccccc3)C(=O)c3ccccc3C2=O)CC1 | u | -15%

# Further entries follow:
SMILES | PMP22 txn prim | HTT prom inh
COc1ccc(C)cc1NC(=O)CN(c1ccccc1)S(=O)(=O)N(C)C | -21% | -5%
COCCOC(=O)C1=C(C)NC(C)=C(C(=O)OC/C=C/c2ccccc2)C1c1cccc([N+](=O)[O-])c1 (stereo not given) | x | -29%
Cc1ccccc1OCC(=O)Nc1ccc2oc(-c3ccc(F)cc3)nc2c1 | u | 9%
CCOc1ccc(NC(=O)Cc2ccc(-n3c(C)nc4cccnc43)cc2)cc1 | -18% | -14%
CCCCNC(=O)C1CCCN(S(=O)(=O)CCC)C1 (stereo not given) | -9% | -6%
CN1c2ccccc2C(=O)N2CCc3c([nH]c4ccccc34)C21 (stereo not given) | x | -3%
CCOc1cccc(CNCCCSc2nnnn2C)c1 | -12% | -15%
Cc1cccc(C(=O)Nc2ccccc2SCc2cc(=O)c3cccc(C)c3[nH]2)c1 | 19% | -7%
COc1cccc(C(=O)Nc2ccc(Cl)c(-c3nc4ccccc4[nH]3)c2)c1 | u | -21%
Cn1cnc(S(=O)(=O)N2CCCC(C(=O)Nc3ccc(F)cc3Cl)C2)c1 (stereo not given) | 22% | -28%
COc1cccc(NC(=O)C(CCSC)NC(=O)C2CCC(C)CC2)c1 (stereo not given) | 1% | -9%
